GIRK2 act: activators of human GIRK2 potassium channels; AID 1259325; 63,000 compounds, 0.05% hits; P48051; HEK293-GIRK2 thallium flux, Thallos fluorescence; calls only for hits at 25 µM;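 active = among the strongest 0.2% of first-round signals and kept after retests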;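 also: first round at about 10 µM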
Target sequence (P48051 whole entry, looked up): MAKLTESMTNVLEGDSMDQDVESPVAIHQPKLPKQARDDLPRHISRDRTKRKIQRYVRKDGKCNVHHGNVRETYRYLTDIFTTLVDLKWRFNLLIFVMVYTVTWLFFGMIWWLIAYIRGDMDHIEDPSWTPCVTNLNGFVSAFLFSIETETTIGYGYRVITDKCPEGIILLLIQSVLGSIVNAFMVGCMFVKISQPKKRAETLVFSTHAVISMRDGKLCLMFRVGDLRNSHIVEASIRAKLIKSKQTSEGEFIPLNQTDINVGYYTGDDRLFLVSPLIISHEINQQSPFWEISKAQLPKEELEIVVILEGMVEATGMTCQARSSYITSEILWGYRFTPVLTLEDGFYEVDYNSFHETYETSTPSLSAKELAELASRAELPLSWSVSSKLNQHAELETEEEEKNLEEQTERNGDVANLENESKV
Calls only; i = inactive.

GIRK2 act	structure
i	Cn1c(=O)c2c(ncn2CC(=O)N2CCCC(c3nnc(-c4ccccc4F)s3)C2)n(C)c1=O (centres undefined)
i	O=C(Nc1cccc(N2CCCS2(=O)=O)c1)c1cccs1
i	C=CCNC(=O)c1sccc1N(C)S(=O)(=O)c1ccc(OC)cc1
i	COc1ccc(Cl)cc1C(=O)Nc1ccc(-n2nnc(C(=O)NC3CCCC3)n2)cc1
i	COCCN1N=C(C)Cn2c1nc1c2c(=O)n(Cc2ccccc2C)c(=O)n1C
i	COC1(CNC(=O)CN2C(=O)CCC2=O)CCSC1 (centres undefined)
i	O=C(O)[C@H]1O[C@@H](Oc2c(-c3ccccc3)cc(O)c(-c3ccccc3)c2O)[C@H](O)[C@@H](O)[C@@H]1O
i	O=C(NC1CC(O)C(CO)C1)c1ccco1 (centres undefined)
i	CS(=O)(=O)NCC1CCC(C(=O)NC23CC4CC(CC(C4)C2)C3)CC1 (centres undefined)
i	CCOc1ccccc1-c1noc(Cn2nc(-c3ccc(C)c(C)c3)ccc2=O)n1
i	COc1cc(Cl)c(C)cc1-n1ccnc(NCc2ccc(C)cc2)c1=O
i	COc1ccc(S(=O)(=O)c2c(C)cc(C)n(CC(=O)Nc3cccc(C)c3)c2=O)cc1OC
i	COc1ccc(-c2cc3c4nn(CC(=O)Nc5cccc(OC)c5)c(=O)n4ccn3n2)cc1
i	Cn1c(=O)n(CC(=O)O)c(=O)c2c1nc1n2CCCN1c1ccc(Cl)cc1
i	O=C(Nn1cnc2c(cnn2-c2cccc(Cl)c2)c1=O)c1cccc(F)c1
i	Cc1cc(OCC(=O)Nc2cccc(Br)c2)nc(N2CCCCC2)n1
i	Cc1cc(NC2CCCC2)n2nc(C)c(-c3ccccc3)c2n1
i	CCOc1ccc(-c2noc(Cn3nc(-c4ccc(C)cc4)ccc3=O)n2)cc1OC
i	O=C(NC1CC(=O)N(c2cccc(F)c2)C1)c1ccccc1Cl (centres undefined)
i	N#Cc1ccc(COCC2CCN(C(=O)Nc3ccccc3)CC2)cc1
i	COc1ccc(/C=C\C(=O)Nc2cc(-c3cccs3)nn2-c2nc(C)cc(=O)[nH]2)cc1OC
i	Cc1[nH]c2ccc(S(C)(=O)=O)cc2c1CC(=O)O
i	CCCCNC(=O)c1ccc(Cn2c(=S)[nH]c3cc4c(cc3c2=O)OCO4)cc1
i	Cc1ccc(S(=O)(=O)c2c(C(=O)N3CCC(C)CC3)cnc3ccc(Cl)cc23)cc1
i	CCc1[nH]nc(S(=O)(=O)Nc2cccc(OC(F)(F)F)c2)c1C(=O)OC

A different layout for part of the listing above:
smiles	GIRK2 act
Cc1[nH]c2ccc(S(C)(=O)=O)cc2c1CC(=O)O	i
Cn1c(=O)c2c(ncn2CC(=O)N2CCCC(c3nnc(-c4ccccc4F)s3)C2)n(C)c1=O (centres undefined)	i
O=C(NC1CC(O)C(CO)C1)c1ccco1 (centres undefined)	i
COc1ccc(/C=C\C(=O)Nc2cc(-c3cccs3)nn2-c2nc(C)cc(=O)[nH]2)cc1OC	i

(next part)
GIRK2 act	structure
i	O=C(CSc1ncccn1)Nc1ncc(Cc2cccc(C(F)(F)F)c2)s1
i	O=C(NCCn1cnc(-c2ccccc2)cc1=O)c1cc(Br)ccc1Cl
i	COC(=O)c1ccccc1NC(=O)c1csc(-c2cnccn2)n1
i	O=S(=O)(c1ccccc1C(F)(F)F)N1CCCC(c2nnc(C(F)(F)F)o2)C1 (centres undefined)
i	CCOCC(=O)NCC(O)c1ccc2c(c1)CCO2 (centres undefined)
i	CCCCOc1ccc(C(=O)N2CCC3(CC2)OCCCO3)cc1
i	Cc1cccc(Nc2nc(CC(=O)NCCC3=CCCCC3)cs2)n1
i	CCOC(=O)CNC(=O)C1CCCN(c2nc3c(-c4ccc(C)cc4)csc3c(=O)[nH]2)C1 (centres undefined)
i	Cc1cn2c3c(=O)n(CC(N)=O)c(=O)n(C)c3nc2n1-c1ccccc1F
i	Cc1cc(C(=O)Nc2nc3c(C)ccc(Cl)c3s2)on1
i	O=C(Cn1cc(-c2nc(-c3ccsc3)no2)ccc1=O)c1cccc(Cl)c1
i	O=C(c1nc2ccccc2s1)N1CCC(c2nnc(C3CC3)o2)CC1
i	CCOC(=O)[C@H](CCc1ccccc1)N[C@@H](C)C(=O)N1[C@H](C(=O)O)C[C@@H]2CCC[C@@H]21
i	O=[N+]([O-])c1ccc(-c2nc(-c3ccc(F)cc3)c(-c3ccncc3)[nH]2)cc1
i	O=C(c1cc2n(n1)CCCO2)N1CCN(C(=O)C2CCCO2)CC1 (centres undefined)
i	O=C(c1ccc(Cl)s1)N1CCC(c2nnc(C3CC3)o2)CC1
i	COC(=O)c1ccc(NC(=O)CSC2=NNC3C4CC(c5ccc(OC)cc5)NN4C=CN23)cc1 (centres undefined)
i	O=C(CCn1c(=O)c2ccccc2n2c(=O)n(Cc3cccc(F)c3)nc12)NC1CCCCC1
i	CCN1CCN(c2cc(C)nc3c4c(C)cc(C)nc4nn23)CC1
i	COc1ccc(Cl)cc1C(=O)N1CCCC(c2nnc(C(F)(F)F)o2)C1 (centres undefined)
i	CC(NC(=O)c1cc2c(=O)n(C)c(=O)n(C)c2n1Cc1ccccc1)c1ccccc1 (centres undefined)
i	COc1ccc(-c2nnc(NCCc3ccc(OC)c(OC)c3)[nH]c2=O)cc1
i	O=C1CC(c2cccs2)SC(=Nc2ccccc2)N1c1ccccc1 (centres undefined)
i	COc1ccc(CCNC(=O)C2COCC(=O)N2Cc2cccs2)cc1OC (centres undefined)
i	CC(=O)Nc1ccc(S(=O)(=O)N2CCC(Oc3nc4ccccc4s3)CC2)cc1
i	O=C(Cn1cnc2c(oc3ccccc32)c1=O)Nc1cc(F)ccc1F
i	Cc1ccc(Nc2ccc(NS(=O)(=O)c3ccc4c(c3)OCCO4)cc2)nn1
i	Cc1nc(C)c(-c2nnc(NC(=O)c3ccc(F)cc3F)o2)s1
i	COc1ccccc1NC(=O)COc1cc(=O)n2cccc(C)c2n1
i	CCNC(=O)NCCN1CCN(c2ccccc2F)CC1
i	O=C(NCCOc1cc(N2CCOCC2)ncn1)C1CC1
i	Cc1ccc(NC(=O)CCc2ccc(C)o2)c(C(=O)O)c1
i	Cn1cnc(S(=O)(=O)N2CCC(S(=O)(=O)Cc3ccco3)CC2)c1
i	COc1cc(F)ccc1S(=O)(=O)N1CCN(C23CC4CC(CC(C4)C2)C3)CC1
i	CCOc1ccc(NC(=O)CN2CCC3(CC2)N=C(c2ccc(C)cc2)C(=O)N3)cc1
i	N#Cc1cccc(NC(=O)Cn2cccc(-c3nc(-c4ccc(F)cc4)no3)c2=O)c1
i	CCc1ccc(-n2c(-c3ccccc3)cn3c4c(=O)n(CCN5CCOCC5)c(=O)n(C)c4nc23)cc1
i	COc1ccc(NC(=O)c2cccc3nc4ccccc4nc23)c(OC)c1
i	COc1cc(OC)c(NC(=O)Cn2c(-c3ccc(C)cc3)ncc(C#N)c2=O)cc1Cl
i	O=C(NCCN1CCN(C(=O)c2cc(-c3ccco3)on2)CC1)c1ccsc1
i	Cc1cc(C)n(-c2ccc(C(=O)NCc3sc(-c4ccccc4Cl)nc3C)nn2)n1
i	COc1ccc2oc(=O)c(C(=O)Nc3ccc(Br)cc3C)cc2c1
i	CCn1nc(C(=O)Nc2nc3ccc(C(=O)OC)cc3s2)cc1C
i	CCCCC/C=C\C/C=C\CCCCCCCC(=O)OC[C@H](O)CO
i	O=C(NCc1cnn2ccccc12)c1cnn(-c2ccccc2)n1
i	COc1ccc(N2CCN(S(=O)(=O)c3ccc(F)c(C(=O)Nc4ccc(C(C)C)cc4)c3)CC2)cc1
i	Cc1ccc(-c2csc(-c3nnn(-c4ccc(F)cc4)c3N)n2)c(C)c1
i	CCCCn1c(C(=O)NCCCOC)cc2c(=O)n(C)c(=O)n(C)c21
i	Cc1ccc2oc3c(c(=O)c2c1)C(c1ccc([N+](=O)[O-])cc1)N(c1ccccn1)C3=O (centres undefined)
i	CN1CCC(=C2c3ccccc3C=Cc3ccccc32)CC1

Continuation:
GIRK2 act	structure
i	COc1ccc(-c2cc(N3CCCC(C(=O)NCC(OC)OC)C3)ncn2)cc1 (centres undefined)
i	c1cc(N2CCSCC2)ncc1-c1noc(CN2CCN(C3CCCCC3)CC2)n1
i	O=C(NCc1ccccc1Cl)C(=O)NCC1(c2ccc(F)cc2)CC1
i	COC(=O)c1ccccc1C(=O)N1CCN(c2nnc(SCC(=O)Nc3ccccc3)s2)CC1
i	O=C(NCc1ccccc1)c1ccc2nn(CC(=O)N3CCN(c4ccccc4)CC3)c(=O)n2c1
i	COc1ccc(-c2c(C)oc3c4c(ccc3c2=O)OCN(C2CCS(=O)(=O)C2)C4)cc1OC (centres undefined)
i	O=C(Cn1c(=O)n(CCCCC(=O)NC2CCCC2)c(=O)c2ccccc21)NCCc1ccccc1
i	Cc1ccc(NS(=O)(=O)c2c(C)cc(C)c(N(C)S(C)(=O)=O)c2C)cc1
i	Cc1cc(CCNC(=O)C23CC4CC(CC(C4)C2)C3)on1
i	COCCCN1COc2ccc3c(c2C1)O/C(=C\c1cccc(OC)c1OC)C3=O
i	O=C1CCc2cc(S(=O)(=O)NCCC3=CCCCC3)cc3c2N1CCC3
i	CN(C)C(CNC(=O)C(=O)NC1CCCC1)c1ccccc1Cl (centres undefined)
i	COc1nn(C)cc1C(=O)Nc1nnc(SCC(N)=O)s1
i	CC(C)n1c(SCC(=O)Nc2ccc(Cl)cc2)nc2nc(N3CCCCC3)sc2c1=O
i	O=c1cccnn1CCCNS(=O)(=O)c1cc(C(F)(F)F)ccc1Cl
i	Cc1c(Cl)cccc1NC(=O)Cn1cnc2nc(N3CCOCC3)ncc2c1=O
i	CN(C)c1ncc(NC(=O)C2CCCC2)c(N(C)C)n1
i	O=C(c1cc2ccccc2oc1=O)N1CCN(CCn2cccn2)CC1
i	CCOC(=O)N1CCN(C(=O)CCN2C(=O)c3ccccc3S2(=O)=O)CC1
i	FC(F)(F)c1cccc(CN2CC(c3nc(Cc4ccccc4)no3)C2)c1
i	COc1ccccc1Oc1cncnc1-c1ccc(OCc2ccccc2)cc1O
i	O=C(Nc1ccccc1-c1ccccc1)C1COCC(=O)N1Cc1ccccc1 (centres undefined)
i	O=C(c1cccc([N+](=O)[O-])c1)N(C(=O)N1CCCCC1)c1ccccc1
i	COc1ccc(Cl)cc1C(=O)NCCC(O)C1CC1 (centres undefined)
i	O=C1OC2CC1N(C(=O)/C=C/c1ccccc1Cl)C2 (centres undefined)

Structures listed so far that have an NH in an aromatic ring (7):
GIRK2 act	structure
i	COc1ccc(/C=C\C(=O)Nc2cc(-c3cccs3)nn2-c2nc(C)cc(=O)[nH]2)cc1OC
i	Cc1[nH]c2ccc(S(C)(=O)=O)cc2c1CC(=O)O
i	CCCCNC(=O)c1ccc(Cn2c(=S)[nH]c3cc4c(cc3c2=O)OCO4)cc1
i	CCc1[nH]nc(S(=O)(=O)Nc2cccc(OC(F)(F)F)c2)c1C(=O)OC
i	CCOC(=O)CNC(=O)C1CCCN(c2nc3c(-c4ccc(C)cc4)csc3c(=O)[nH]2)C1 (centres undefined)
i	O=[N+]([O-])c1ccc(-c2nc(-c3ccc(F)cc3)c(-c3ccncc3)[nH]2)cc1
i	COc1ccc(-c2nnc(NCCc3ccc(OC)c(OC)c3)[nH]c2=O)cc1

The list continues:
GIRK2 act	structure
i	N#Cc1c(NC(=O)CSc2ncn[nH]2)sc2c1CCCCC2
i	O=C(NC(=O)C(F)(F)F)Nc1ccc2c(c1)OCCO2
i	COC(=O)N1CCC(CNC(=O)/C=C/c2ccsc2)CC1
i	Cc1nnsc1C(=O)N1CCC(C(=O)NCC(F)(F)F)CC1
i	O=C(Cc1cccc2ccccc12)Nc1cccc(-c2ccc3nnc(-c4ccncc4)n3n2)c1
i	COc1c[nH]c(C(=O)Nc2cccc(SC)c2)cc1=O
i	CCc1ccc(S(=O)(=O)Nc2c(C)cc(C)cc2C)cc1
i	COc1ccccc1NC(=O)Nc1ccc2c(c1)N(S(=O)(=O)c1cccs1)CCC2
i	Cc1nc(NCCNC(=O)Nc2cccc(Cl)c2)cc(Nc2ccccn2)n1
i	CCOCCn1c(=O)c2c(nc3n(-c4ccccc4)c(C)cn23)n(C)c1=O
i	CCCn1c(=O)c2c(nc3n2CC(C)CN3c2ccc(Oc3ccccc3)cc2)n(C)c1=O (centres undefined)
i	Cc1nc2ccccn2c1C(=O)NCCN1CCN(c2ccc(F)cc2)CC1
i	Cc1ccc(CNC(=O)Cn2nnc(C(=O)Nc3cccc(C)c3C)c2N)cc1
i	O=C(Nc1ccccc1Cl)N1CCC(COCc2ccccc2)CC1
i	COc1ccc(-n2nnc3c(=O)n(Cc4nc(-c5cccs5)no4)cnc32)cc1
i	Cc1nc(N2CCN(C(=O)C3CCN(S(C)(=O)=O)CC3)CC2)cc(-n2cccc2)n1
i	COCCCNc1nc2c(c(=O)n(C)c(=O)n2C)n1CC(O)COc1ccc(OC)cc1 (centres undefined)
i	Cn1c(=O)[nH]c(=O)c2c1nc(N1CCN(CC(N)=O)CC1)n2Cc1ccc(Cl)cc1
i	COCCn1c(SCc2nc(-c3ccc(C(F)(F)F)cc3)no2)nc2ccsc2c1=O
i	CCOc1ccccc1NC(=O)N(CC(F)(F)F)C1CCOCC1
i	O=C(NCC(O)c1ccc(C(F)(F)F)cc1)NC12CC3CC(CC(C3)C1)C2 (centres undefined)
i	COc1cccc(/C=C2/SC(=S)N(c3cccnc3)C2=O)c1OC
i	COc1nc2ccccc2nc1NS(=O)(=O)c1ccc(NC(C)=O)cc1
i	Cc1ccc(-c2csc3nnc(SCC(=O)c4ccccc4)n23)cc1
i	Cc1ccc2c(Nc3ccc(S(C)(=O)=O)cc3)c(C(=O)N3CCCCC3C)cnc2n1 (centres undefined)
i	Cc1csc(CN2CCN(C(=O)c3ccco3)CC2)n1
i	COc1cc(NC(=O)Cn2cc(-c3nc(-c4ccc(Cl)cc4)no3)ccc2=O)cc(OC)c1
i	COC(=O)Cn1c(=O)c2c(nc3n(-c4ccc(OC)cc4OC)c(-c4ccccc4)cn23)n(C)c1=O

Pulled by compound from the list above:
GIRK2 act	structure
i	Cc1nc2ccccn2c1C(=O)NCCN1CCN(c2ccc(F)cc2)CC1
i	O=C(NC(=O)C(F)(F)F)Nc1ccc2c(c1)OCCO2
i	COC(=O)Cn1c(=O)c2c(nc3n(-c4ccc(OC)cc4OC)c(-c4ccccc4)cn23)n(C)c1=O
i	COC(=O)N1CCC(CNC(=O)/C=C/c2ccsc2)CC1
i	COc1cc(NC(=O)Cn2cc(-c3nc(-c4ccc(Cl)cc4)no3)ccc2=O)cc(OC)c1

High-throughput results (PubChem)

Only part of the results is shown; rates above refer to the full screens.
